# Screening data: PubChem, several laboratories
# Calb FLC: affects C. albicans growth with fluconazole | C. albicans CaCi-2 (fluconazole-resistant clinical isolate) + fluconazole, Alamar Blue growth, 48 h | growth inhibition, % (test concentration not listed) | 0.57% of 300,000 active | AID 1979;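 active means most replicates above 75%; inconclusive means exactly half above 75%; inactive means most below 75%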;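 further: all wells also contain fluconazole at 8 µg/ml as a sub-toxic cotreatment; 0% = median of DMSO wells and 100% = median of geldanamycin control wells; wells of about 8 µL received 7.5 nL stock; the first replicate is given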
# Vif A3G: HIV-1 Vif–A3G interaction blockers – biochemical, TR-FRET, GST-Vif 1-94, biotin-A3G peptide, dose response retest, primary screen (AID 1117319); TR-FRET GST-Vif / biotin-A3G peptide binding; higher % means a stronger effect; test concentration not given here; strong numbers were not always called active; one-dose inhibition, %; IC50 in µM for titrated hits; 0.57% of 260,000 active;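 active means above the screen mean plus three standard deviations and confirmed in dose response; inconclusive means results disagree or hit not tested in dose response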;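 further: Vif residues 1-94 fused to GST binding biotinylated APOBEC3G peptide 110-148; 0% = full assay without inhibitor and 100% = GST in place of GST-Vif; retest series ran down from 100 µM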
# ALR H2O2 inh: blocks human ALR sulfhydryl oxidase activity. 3.8% of 290,000 active. purified ALR, DTT oxidation, H2O2 HRP-luminol luminescence. P55789. inhibition, % (concentration not given with the values);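 active means mean and each replicate at 75% or more; inconclusive means only one of the two met; inactive means neither met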;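 further: stock transfer was 7.5 nL into about 7.5 µL; 0% = neutral wells and 100% = wells with inactivated enzyme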
# Target sequence (P55789 whole entry, looked up): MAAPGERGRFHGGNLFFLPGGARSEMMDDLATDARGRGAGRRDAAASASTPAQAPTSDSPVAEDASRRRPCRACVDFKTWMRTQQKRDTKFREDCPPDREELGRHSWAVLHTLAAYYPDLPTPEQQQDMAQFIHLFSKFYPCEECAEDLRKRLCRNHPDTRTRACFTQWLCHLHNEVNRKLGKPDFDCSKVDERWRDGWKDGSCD
# RanGTP-Imp inh: disruptors of Ran-importin-beta complex formation – biochemical, FRET, CFP-Ran, YFP-importin-beta, homogeneous, primary screen | 1.1% of 300,000 active | cell-free CFP-Ran/YFP-importin-beta FRET ratio | inhibition, % (concentration not given with the values);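 active means most replicates above 15%; inconclusive means exactly half above 15%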;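 further: 0% = DMSO wells and 100% = Ran loaded with GDP instead of GTP; wells of about 40 µL received 100 nL stock; the first replicate is given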
# LANA-H2B inh: blocks KSHV LANA binding to histone H2A/H2B | Q9QR71 | cell-free LANA-H2A/H2B peptide, fluorescence polarization | inhibition, % (test concentration not listed) | 0.6% of 320,000 active; in the data active means inhibition mostly above about 10%, no sharp cut-off; inactive means mostly below about 6.7%;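 further: stock transfer was 7.5 nL into about 10 µL; 0% = median of vehicle wells and 100% = median of positive control wells; one replicate is shown; the record names a cut of 25% in any replicate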
# HNF4A DNA FP: change in binding of human HNF4 alpha to DNA | HNF4a-FITC DNA binding, fluorescence polarization, 1 h | 0.3% of 360,000 active | P41235 | activity change, % at 10 µM; in the data active means activity change above about 30%, passing the limit was not always enough;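 further: controls were the assay level and a saturating level of protein; the project sought stronger binding though the title names inhibitors; some compounds called inactive have numbers as strong as hits; positive values seem to mean higher polarization but the record does not say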
# Target sequence (P41235 whole entry, looked up): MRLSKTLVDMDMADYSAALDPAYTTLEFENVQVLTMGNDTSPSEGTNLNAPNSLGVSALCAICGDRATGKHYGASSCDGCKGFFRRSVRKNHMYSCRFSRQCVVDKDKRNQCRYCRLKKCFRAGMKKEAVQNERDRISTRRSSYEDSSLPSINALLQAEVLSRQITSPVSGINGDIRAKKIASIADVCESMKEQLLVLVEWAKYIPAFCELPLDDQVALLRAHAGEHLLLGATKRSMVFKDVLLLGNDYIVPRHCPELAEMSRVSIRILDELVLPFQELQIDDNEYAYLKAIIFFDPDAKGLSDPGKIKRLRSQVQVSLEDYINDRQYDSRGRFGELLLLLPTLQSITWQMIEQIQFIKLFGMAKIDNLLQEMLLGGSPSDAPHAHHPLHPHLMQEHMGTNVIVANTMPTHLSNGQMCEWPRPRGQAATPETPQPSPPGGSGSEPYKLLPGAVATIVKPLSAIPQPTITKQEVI
# B2AR ag: human beta-2 adrenergic receptor agonism by FAP | P07550 | response, % (no concentration beside the values) | Am2.2-beta2AR cells, FAP receptor internalization, flow cytometry; reference of the scale not given here | 0.43% of 340,000 active;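 active means response above a set limit, near 3 SD of response in nonfluorescent compounds, cut at about 42% in these data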;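 further: stock transfer was 100 nL into about 11 µL; a reference agonist was the positive control; negative values mostly stem from fluorescent compounds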
# Target sequence (P07550 whole entry, looked up): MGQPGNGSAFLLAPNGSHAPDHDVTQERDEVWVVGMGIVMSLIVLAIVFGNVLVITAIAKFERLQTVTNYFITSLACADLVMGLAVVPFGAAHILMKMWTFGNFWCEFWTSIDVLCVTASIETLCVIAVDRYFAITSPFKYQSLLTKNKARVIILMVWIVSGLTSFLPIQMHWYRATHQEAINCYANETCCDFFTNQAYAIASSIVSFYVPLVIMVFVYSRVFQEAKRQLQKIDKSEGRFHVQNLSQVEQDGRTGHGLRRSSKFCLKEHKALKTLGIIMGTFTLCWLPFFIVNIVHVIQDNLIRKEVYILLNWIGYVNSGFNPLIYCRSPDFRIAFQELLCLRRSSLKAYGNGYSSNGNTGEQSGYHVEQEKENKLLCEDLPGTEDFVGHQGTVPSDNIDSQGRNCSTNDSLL
# The depositor's hits bear a star; ? = inconclusive; . = no result given; & = joins results of further samples.
SMILES,Calb FLC,Vif A3G,ALR H2O2 inh,RanGTP-Imp inh,LANA-H2B inh,HNF4A DNA FP,B2AR ag
COc1ccc(C(=O)NC(Nc2ccccc2)C(Cl)(Cl)Cl)cc1 (centres undefined),-6,2%,-11,-0.4,2.0,-0.6,26
COc1ccc(CCNC(=O)COC(=O)c2ccc(OC)cc2OC)cc1,.,3%,.,.,.,5.4,2
COc1ccc(C(CC(=O)N2CCOCC2)C(C)C)cc1 (centres undefined),3,-1%,18,4.4,-11,-8.4,-4
O=C(O)C1CC=CCC1C(=O)NCc1ccc2c(c1)OCO2 (centres undefined),0,-2%,-5,3.9,4.8,4.9,3
Cc1ccc(NCC(=O)N/N=C/c2cc3ccccc3nc2Cl)cc1,-5,6%,.,-0.1,9.7,-8.1,-1
C/C(=N\NC(=O)c1ccc(-c2ccccc2)cc1)c1cccc(N)c1,-18,9%,66,-4.4,3.9,-0.1,8
NCCCCCc1nnc(SCC(N)=O)o1,-21,15%,6,0.0,2.8,-0.2,1
CCCn1c(SCC(=O)NC2CC2)nnc1-c1ccccn1,26,-9%,9,4.9,-2.1,0.8,1
CCSC1=NC(=O)/C(=C2/C=Cc3ccccc3N2CC)S1,12,-8%,25,-7.6,-1.0,6.1,-10
O=S(=O)(Nc1ccc(-c2ccc(N3CCOCC3)nn2)cc1)c1cc(Cl)ccc1Cl,15,15%,.,5.8,.,0.9,13
COC(=O)Cc1ccc(NC(=S)NCc2ccccc2OC)cc1,-28,7%,-5,-0.5,0.4,-0.4,4
Cc1ccc(C23CCC(=O)N2C(C(=O)O)CS3)c(C)c1 (centres undefined),4,.,0,-0.9,1.6,0.0,-1
CC(C)CNC(=O)COC(=O)c1cccc(S(=O)(=O)NCC(F)(F)F)c1,2,11%,-6,?,-2.1,-2.2,5
N#Cc1cccc(NC(=O)COC(=O)c2ccc3c(=O)n4c(nc3c2)CCC4)c1,-9,-35%,-8,-1.3,-1.6,.,.
Cc1ccsc1C(=O)Nc1ccccc1N1CCOCC1,1,-8%,21,?,2.7,2.8,-12
Cc1cc(C)c2c(N)c(C(=O)NN3CC(=O)N(c4ccccc4F)CC3=O)sc2n1,-2,1%,24,16*,-1.1,-0.1,-6
CCNC(=S)NNC(=O)c1ccncc1,-1,-11%,29,-1.4,1.3,-2.2,4
O=C(C1CC1)N1CCc2cc(S(=O)(=O)NCCC3=CCCCC3)ccc21,-1,-5%,-13,0.0,-3.0,2.2,-11
CCOc1ccccc1OC(C)C(=O)Nc1ccc(S(=O)(=O)N2CCCC2)cc1 (centres undefined),3,.,-7,-2.4,-0.1,4.3,8
CCc1ccccc1NC(=O)CN(C)C(=O)CSc1nnc(Nc2cccc(C)c2C)s1,0,-8%,-2,-0.3,1.2,-1.4,4
O=C(CSc1nnc(-c2ccncc2)n1-c1ccccc1)Nc1ccc(C(=O)O)cc1,-4,7%,-5,-4.8,-2.1,4.5,-6
O=C(CN1C2CCCC1CC(NC(=O)c1ccccc1)C2)Nc1nccs1 (centres undefined),9,13%,-4,3.6,3.8,1.3,-6
CCOC(=O)c1cc(C)sc1/N=C/C1C(=O)CC(C)(C)CC1=O,-20,.,7,-2.4,4.9,-0.2,-1
O=C(NCc1ccc(F)cc1)c1cccc2c1C(=O)c1ccc(N3CCC(Cc4ccccc4)CC3)cc1S2(=O)=O,.,.,22,.,6.5,-106,-70
CCOc1ccc(Cl)cc1CSc1n[nH]c(C)n1,5,0%,1,-1.2,-1.9,-3.9,-4
Cc1cc2nnc(SCC(=O)N(C)C3CCS(=O)(=O)C3)n2c2ccccc12 (centres undefined),9,.,5,-1.3,-2.4,-8.0,5
COc1ccc(N=C2C(=O)Nc3c(C)cccc32)cc1,-40,7%,5,5.2,2.9,-1.3,1
O=C(CSc1nnc2c(n1)[nH]c1ccccc12)Nc1ccc(S(=O)(=O)Nc2ncccn2)cc1,-10,6%,.,4.3,.,1.7,-4
Cc1nc2ccc(C(=O)Nc3ccc4nc[nH]c4c3)cc2[nH]1,9,-5%,-13,4.4,2.6,-2.4,1
Cc1ccc(F)cc1N=Cc1c(O)c2ccccc2oc1=O,7,.,54,-0.8,-3.9,5.4,-2
CCSc1nnc2ccc(-c3ccco3)nn12,4,-2%,-10,-1.3,2.3,0.0,-5
CCc1nnc(NC(=O)c2cccnc2)s1,-5,2%,-3,-0.6,-4.1,0.8,4
Cc1cccc(-n2c(O)c(C=Nc3cccc(O)c3)c3ccccc3c2=O)n1,4,-15%,1,6.9,-1.3,8.8,-6
CCOP(=O)(Nc1ccc2oc(=O)c3ccccc3c2c1)OCC,6,1%,3,?,-2.0,-1.4,-4
CC(NC(=O)CC1Nc2ccccc2NC1=O)c1ccccc1 (centres undefined),7,67%,4,2.3,-3.8,3.8,-80
COC(=O)[C@@H](c1ccccc1)N(C)S(=O)(=O)c1cccc(S(=O)(=O)N(C)[C@@H](C(=O)OC)c2ccccc2)c1,-10,.,-4,0.6,0.7,0.2,11
CCOC(=O)Cc1nnc(NC(=O)C23CC4CC(CC(C4)C2)C3)s1,-5,.,-13,4.9,8.0,1.2,1
CSc1ccc(CCNS(=O)(=O)c2ccc3c(c2)C(C)(C)C(=O)N3C)cc1,-7,.,-10,3.5,5.7,2.8,-6
Cc1cc(C)n2cc(CSc3nc4ccccc4[nH]3)nc2n1,-6,-5%,99*,-1.9,11,4.2,-6
CCCCNC(=O)NNc1nc(Cl)cc(C)c1C#N,-8,25%,?,-1.8,5.1,0.2,11
COCCNc1cc(NCCOC)c([N+](=O)[O-])cc1[N+](=O)[O-],0,-4%,.,2.8,-3.7,-1.7,-5
N#CCCN(Cc1cccnc1)C(=S)NC(=O)C1CC1,21,-13%,.,3.8,-4.6,.,.
O=C1c2ccccc2CC1Sc1nnc(-c2ccncc2)o1 (centres undefined),19,9%,.,-1.3,-1.5,-6.3,8
Cn1c(SCC(=O)NC2CCCC2)nnc1-c1ccc(S(=O)(=O)N2CCOCC2)cc1,5,4%&3%,6,1.8,-2.3,4.7,3
COc1ccc(NC(=S)c2ccccc2)cc1,-3,3%,-9,-2.7,-0.1,2.1,0

# A few values from the results shown.
# For ALR H2O2 inh, CC(NC(=O)CC1Nc2ccccc2NC1=O)c1ccccc1 (centres undefined) is listed with 4
# For LANA-H2B inh, Cc1nc2ccc(C(=O)Nc3ccc4nc[nH]c4c3)cc2[nH]1 is listed with 2.6
# For Calb FLC, COCCNc1cc(NCCOC)c([N+](=O)[O-])cc1[N+](=O)[O-] is listed with 0

# Other structures.
SMILES,Calb FLC,Vif A3G,ALR H2O2 inh,RanGTP-Imp inh,LANA-H2B inh,HNF4A DNA FP,B2AR ag
Cc1cccc(NC(=O)CCC2CCN(C(=O)c3ccc(C)s3)CC2)c1,5,-2%,-6,2.6,-0.9,2.2,-4
COc1cccc(N(CC(=O)N2CCCC2)S(C)(=O)=O)c1,-2,3%,3,1.5,-0.2,-5.0,0
COc1cc2[nH]c(=O)n(CCC(=O)N3CCC(N4CCCCC4)CC3)c(=O)c2cc1OC,-4,0%,-3,11,-1.6,-0.1,3
CCn1c(/C=C/c2cccc([N+](=O)[O-])c2)nc2ccccc2c1=O,-23,3%,0,-0.1,-5.0,-1.0,-6
COCC1CCCN(C(=O)c2ccc3nc(Cc4cccc(Cl)c4)oc3c2)C1 (centres undefined),2,4%,-3,-3.6,5.2,4.1,-8
CCCOc1ccc(-c2c(C(=O)N/N=C/c3ccc(C)o3)nnn2-c2nonc2N)cc1,15,4%,.,-2.6,2.2,0.4,4
O=C(C=P(c1ccccc1)(c1ccccc1)c1ccccc1)c1ccccc1-c1ccccc1C(=O)C=P(c1ccccc1)(c1ccccc1)c1ccccc1,.,-2%,.,.,.,6.3,104*
O=C(COc1ccc(Cl)cc1)NCCNC(=O)c1cnccn1,-9,.,2,-1.3,4.8,-1.6,7
O=C(c1cccc2ccccc12)N1CCN(CC2CC=CCC2)CC1 (centres undefined),0,4%,-1,1.0,1.3,-1.3,-6
CC1(C)Cc2c(cnn2-c2ccccc2)C(NC(=O)CCN2CCCC2=O)C1 (centres undefined),8,.,3,-0.8,1.3,-4.7,0
O=C(O)c1ccccc1-c1ccccc1C(=O)Nc1cccc(-c2nc3ccccc3o2)c1,89*,6%,5,-4.5,2.1,1.5,-6
CC(C)n1cnc2c(N(C)c3ccccc3)nc(N(CCN(C)C)Cc3ccccc3)nc21,-7,.,-1,-2.8,-4.7,7.5,35
CC(C)(C)n1nc2c(c1NC(=O)c1ccc([N+](=O)[O-])cc1)CS(=O)(=O)C2,-2,.,-12,-3.8,-4.6,3.0,1
COCCn1c(SCC(=O)Nc2ccc(F)cc2)nc2c([nH]c3ccccc32)c1=O,-2,?,58,?,-3.8,0.9,3
O=C(CSC1=NS(=O)(=O)c2cc(F)ccc2N1)Nc1ccc(F)cc1,0,.,.,3.6,.,-2.2,6
CCN(CC(=O)Nc1c(F)cccc1F)C(=O)CNC(=O)COc1ccccc1,.,.,0,-5.0,-1.7,3.0,13
Cc1ccc(NC(=O)CCN2C(=O)c3ccccc3C2=O)cc1,0,8%,-3,-2.4,0.5,-2.1,-1
CC(=O)c1ccc(NC(=S)NCC(c2ccco2)N2CCCC2)cc1 (centres undefined),-10,-6%,-2,3.7,-1.0,-0.4,-37
Cn1c(=O)c(C(=O)Nc2ccccc2S(N)(=O)=O)c(O)c2ccccc21,-1,6%,0,-2.8,6.7,-2.0,-10
O=C(NCc1cccnc1)c1cnc2n(c1=O)CCS2,3,11%,-23,1.7,1.9,5.5,-10
COC(=O)c1cc(S(=O)(=O)NCCN2CCN(c3ccccc3F)CC2)c[nH]1,-2,.,2,1.8,-9.4,0.6,0
CCCCCCn1c(=O)[nH]c2c(c1=O)CCC2,1,5%,-8,-1.5,-5.7,-2.2,-18
COc1cccc(N=Nc2c(N)[nH][nH]c2=O)c1,-2,1%,.,?,1.4,2.6,3
O=C1CC(c2ccc(Cl)c([N+](=O)[O-])c2)c2ccc3ccccc3c2N1 (centres undefined),11,.,2,?,0.1,1.6,-17
Cn1c(N)c(C(=O)COC(=O)c2ccc(-c3ccccc3)cc2)c(=O)n(C)c1=O,.,3%,-3,.,2.1,0.7,16
COC(=O)c1ccc(N=Cc2c(C(F)(F)F)[nH][nH]c2=O)cc1,-7,5%,0,-4.1,0.8,1.6,1
O=C(CCCc1ccccc1)NCCS(=O)(=O)N1CCN(c2ccccc2F)CC1,-3,12%,-3,-2.3,-2.7,7.6,6
CCOc1cc(NC(=S)NCCCN2CCOCC2)c(OCC)cc1NC(=O)CC(C)C,-8,-1%,-40,-2.3,0.8,4.1,-6
COc1ccccc1N(CCC#N)C(=O)CSc1ccc2c(c1)OCCO2,-2,-5%,-2,-0.8,1.7,0.4,-2
CCc1noc(C)c1C(=O)NNC(=O)c1ccc(F)cc1,-5,-1%,0,3.2,-3.5,-3.9,-9
CC(=O)Nc1ccc(-n2c(C)c(C(C)=O)c(C(C)=O)c2C)cc1,-5,-5%,-10,6.4,4.1,0.7,-1
CCN(CCNc1ccc(Cl)cc1[N+](=O)[O-])C(=O)c1cc([N+](=O)[O-])c(N(C)C)cc1OC,26,14%,-26,-3.0,-0.1,1.0,-19
Cc1ccc(C)c(N(CC(N)=O)S(C)(=O)=O)c1,-8,-7%,-2,-5.1,-2.7,5.4,0
COc1ccc(NC(=O)N2CCCC(c3ccccc3)C2)cc1 (centres undefined),20,-3%,-8,0.8,-5.6,1.9,-10
O=C(Nc1ccc(S(=O)(=O)Nc2ccccn2)cc1)c1ccccc1,-4,.,-1,0.9,0.6,1.5,-3

# Rows were taken by chance, and some 6.3% of all compounds hit somewhere here.
